Bst PK mod = pyruvate kinase (B. stearothermophilus) modulation; partly purified Bacillus stearothermophilus pyruvate kinase, luminescence ATP production; ribose 5-phosphate activator present at AC10; Potency, µM; 1.2% of 51,000 active; AID 361; in the data active means potency below about 11 µM; inconclusive means mostly about 12 µM to 25 µM; inactive means weaker than that;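 the screen sought inhibitors and activators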;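 further: potency means the concentration at half of the fitted maximal effect; scaled between full activation by ribose 5 phosphate and full inhibition by luteolin; about four in five hits inhibit and the cells do not say which; series up to 57 µM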
TsaE inh = displaces an ADP probe from E. coli YjeE (TsaE); purified YjeE, fluorescence polarisation of a bound ADP probe; Potency, µM; 0.05% of 71,000 active; AID 605; active = well fitted falling curve; inconclusive = weaker or top-dose-only fall, or a rising curve; inactive = flat or poorly fitted curve;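 further: top concentration of the series not given in the record; excess ADP was the control for the full effect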
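Purified YjeE (10 uM) with BODIPY Texas Red-labeled ADP probe (2 uM); compounds pin-transferred, 15 min at room temperature. Binding inhibition read as decreased fluorescence polarization; ADP titration as control.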
Starred values were filed as active, the others as inactive; i = inactive; . = not tested or not shown. Not all compounds are listed; the hit share may differ from the screen's.

Every second line gives: Bst PK mod	TsaE inh
> CCCc1nc2ccccc2c(=O)n1/N=C/c1c(C)[nH]n(-c2ccc(C)cc2)c1=O
 : >57	i
> O=C(CSc1nnc(-c2cccnc2)n1Cc1ccco1)Nc1nc(-c2ccc(F)cc2)cs1
 : .	i
> Clc1cc2c(c(Cn3cnc4ccccc43)c1)OCOC2
 : >57	i
> CC1(C)C(=O)N(CCN2CCC(C(=O)c3ccc(F)cc3)CC2)c2ccccc21
 : .	i
> Cc1oc(-c2ccc(Cl)cc2)nc1CN1CCCC(C(=O)N2CCc3ccccc32)C1 (centres undefined)
 : >57	i
> CCN1C(=O)c2cccc3c(S(=O)(=O)NC(Cc4c[nH]c5ccccc45)C(=O)O)ccc1c23 (centres undefined)
 : >57	i
> Cc1onc(-c2c(F)cccc2Cl)c1C(=O)N[C@H]1C(=O)N2[C@H]1SC(C)(C)[C@H]2C(=O)O
 : .	i
> CCN(C(=O)c1cc2cc3ccc(C)cc3nc2o1)c1ccc(OC)cc1
 : .	i
> COc1ccc(CCNC(=O)C2CCCN(Cc3nc(-c4cccc(Cl)c4)oc3C)C2)cc1OC (centres undefined)
 : >57	i
> NC(=O)c1cc(N)ccc1N1CCCC1
 : >57	i
> Cc1cc(NC2C3CC4CC(C3)CC2C4)n2ncnc2n1 (centres undefined)
 : >57	i
> CCOC(=O)COn1c(=O)c(-c2ccc(OC)c(OC)c2)[n+]([O-])c2ccccc21
 : >26	.
> CCCCNC(=O)CN1CCC2(O)CCCCC2C1c1ccccc1OC (centres undefined)
 : >57	i
> COC(=O)c1ccc(CSc2ncnc3ccccc23)o1
 : .	i
> Cn1c(=O)[nH]c(=O)c2c1nc(N1CCNCC1)n2Cc1cccc2ccccc12
 : >57	i
> CSc1ccc(C2C(C#N)=C(N)N(c3ccccc3)C3=C2C(=O)CCC3)cc1 (centres undefined)
 : >57	i
> COC(=O)c1sc2ccccc2c1N
 : .	i
> CCCc1cc(=O)[nH]c(SCC(=O)N2CCN(S(=O)(=O)c3ccc(C)cc3)C2)n1
 : .	i
> Cc1cccc(NC(=O)CC(C)(C)C)c1
 : >57	i
> Cn1cccc1C(=O)N1CCC2(CC1)CN(C(=O)Nc1cccc(F)c1)C2
 : .	i
> CCOC(=O)c1ccc2nc(NC(NC(C)=O)(C(=O)OC)C(F)(F)F)sc2c1 (centres undefined)
 : >26	.
> CCOC(=O)N1CCN(CC(=O)Nc2ccc(C)c(Br)c2)CC1
 : >57	i
> C[C@@]12CC[C@@H]3c4ccc(O)cc4C[C@H](CCCCCCCCCS(=O)CCCC(F)(F)C(F)(F)F)[C@H]3[C@@H]1CC[C@@H]2O (some centres undefined)
 : .	i
> CCNc1ncc2nc(-c3cccc(C#N)c3)c(=O)n(Cc3cccc(OC)c3)c2n1
 : .	i
> CCC(C)N(CCNC(=O)CC1Oc2ccc(C)cc2NC1=O)C1CCCCC1 (centres undefined)
 : .	i
> CCCC[C@@H]1C[C@H]1C(NC(=O)c1ccccc1)c1ccc(C(F)(F)F)cc1 (some centres undefined)
 : .	i
> CCOC(=O)c1cnc2c(C(=O)OC)cccc2c1NCCN1CCOCC1
 : >57	i
> COC(=O)c1ccc(Oc2nc(C)cc(Oc3ccccc3)n2)cc1
 : >57	i
> COc1ccc(C(=O)CSc2nnc(-c3ccco3)n2C)cc1
 : >57	i
> O=C(c1ccc(CNc2c(N3CCOCC3)c(=O)c2=O)cc1)N1CC=C(c2ccccc2)CC1
 : .	i
> CCCCOCC(O)CN1CCN(C(C)=O)CC1 (centres undefined)
 : >57	i
> O=C(CSC1=NCCS1)N1CCOCC1
 : >57	i
> COc1ccc(N2C(=O)C3CCCN3C2c2cccc(OC)c2)cc1 (centres undefined)
 : .	i
> COc1ccc(-n2nnc3c(=O)n(Cc4cccc(C)c4)cnc32)cc1
 : >57	i
> CCOC(=O)C1CCN(C(=O)Nc2ccc(Cl)cc2Cl)CC1
 : >57	i
> CCn1c(C)nc2cc(C(=O)n3cc(C(=O)c4cc(F)ccc4O)cn3)ccc21
 : >57	i
> CCOC(=O)c1[nH]c(C)c(C(=O)NCc2ccc(C)cc2)c1C
 : .	i
> COc1ccc(OC)c(NC(=O)Cc2nn(C)c(=O)c3ccccc23)c1
 : >57	i
> CC(C)(C=O)Cc1cc(C(C)(C)C)c(O)c(C(C)(C)C)c1
 : .	i
> COc1ccc(CNC(=O)c2c(C)cc(=O)oc2C)cc1OC
 : >26	.
> CC(=O)Nc1cccc(-c2nc3ccccc3c(=O)o2)c1
 : i	i
> O=C(CSc1nnc2scc(-c3ccc(F)cc3)n12)NCc1ccco1
 : >57	i
> COCC(=O)Nc1nnc(C2CCCCC2)s1
 : >57	i
> COCCN(Cc1ccccc1)P(=O)(O)c1ccccc1OCC(=O)O
 : >26	.
> Cc1cccc(N(C2C=CS(=O)(=O)C2)S(=O)(=O)c2ccccc2)c1 (centres undefined)
 : >57	i
> CCc1ccc(O)c(N=Cc2ccccc2O)c1
 : .	i
> Cc1nc(N2CCOCC2)c2oc3ccccc3c2n1
 : i	i
> CN1CCN(C(=O)C2C3C=CC(C3)C2C(=O)O)CC1 (centres undefined)
 : >57	i
> Cc1ccc(Cn2ccc(NC(=O)c3cc(-c4ccc(F)cc4)on3)n2)cc1
 : >57	i
> CN1CCc2nc(SCC(=O)Nc3ccc(Cl)cc3)c(C#N)cc2C1
 : >26	.
> CCNc1nc(Oc2ccc(=O)n(-c3ccccc3)n2)nc(N2CCOCC2)n1
 : >57	i
> COc1ccc(OC)c(C2=C[N+](=O)C(C)(C)C(C)(C)N2[O-])c1
 : >57	i
> CC12CN3CC(C)(CN(C1)C3c1ccc3ccccc3c1O)C2=O (centres undefined)
 : .	i
> Cc1ccc(-c2nnn(CC(=O)N(Cc3ccccc3)C(C(=O)NC3CCCC3)c3ccncc3)n2)o1 (centres undefined)
 : >57	i
> CCCC(=O)OCCNC(=O)c1cc2ccccc2oc1=O
 : .	i
> CC(=O)NCCNc1nc(-c2cccc(NS(C)(=O)=O)c2)nc2ccccc12
 : .	i
> Cn1c(C(=O)N2CCCC(C(=O)NCCc3ccccc3)C2)cc2sccc21 (centres undefined)
 : >57	i
> COc1ccccc1CNc1cc(-c2ccoc2)ncn1
 : .	i
> COc1ccc(Nc2nc(C)cc(C)c2C#N)cc1
 : >57	i
> Cc1ccc(SCc2cc(=O)[nH]c(N3CCN(Cc4ccc5c(c4)OCO5)CC3)n2)cc1
 : >57	i

(next part)
Every second line gives: Bst PK mod	TsaE inh
> COc1ccc(C(=O)Nc2ccccc2)cc1[N+](=O)[O-]
 : .	i
> CC(=O)NC(Cc1c[nH]c2ccccc12)C(=O)OCC(=O)Nc1ccc2c(c1)OCO2 (centres undefined)
 : >57	i
> CCn1c(SCC(=O)c2ccccc2)nnc1-c1cc2cc(Br)ccc2o1
 : >57	i
> CCOc1ccc(NS(=O)(=O)c2ccc(SC)cc2)cc1
 : .	i
> Cc1ccc2nc(NC(=O)CN3CCOCC3)sc2c1
 : >57	i
> Cc1c(NC(=O)N2CCCCCC2)c(=O)n(-c2ccccc2)n1C
 : >57	i
> Cc1cc(C)c(NC(=O)c2cc3c(nc4sccn43)s2)c(C)c1
 : >57	i
> CCOc1ccc(-n2c(SCC(=O)Nc3cc(C)on3)nc3c([nH]c4ccccc43)c2=O)cc1
 : .	i
> O=C(COc1ccc(C(=S)N2CCOCC2)cc1)N1CCCC1
 : >57	i
> COc1ccccc1N1CCN(c2nc3ccccc3n3nnnc23)CC1
 : .	i
> COc1ccc(N2CC(C)Cn3c2nc2c3c(=O)[nH]c(=O)n2C)cc1 (centres undefined)
 : >57	i
> Cn1c(Cn2c(=O)sc3ccccc32)nnc1SCC(=O)Nc1ccccc1
 : .	i
> CC(C)C1Cc2c(sc3c2c(=O)n(Cc2ccccc2)c2nncn32)CO1 (centres undefined)
 : >26	.
> O=C(O)c1cccnc1SC1CC(=O)N(c2cccc(C(F)(F)F)c2)C1=O (centres undefined)
 : .	i
> COc1ccc(-c2nnc(SCC(=O)N3CCCC(C)C3)o2)c(OC)c1 (centres undefined)
 : >57	i
> Brc1cnc(N2CCOCC2)nc1N1CCCCC1
 : >57	i
> CCn1c(=O)cc(OCC(=O)Nc2cccnc2)c2ccccc21
 : >57	i
> CC(C)c1ccc(C2CC(=O)N3CN(Cc4ccco4)CSC3=C2C#N)cc1 (centres undefined)
 : >57	i
> CCC(c1nnnn1CCc1ccccc1)N(Cc1ccco1)Cc1cc2cc(C)cc(C)c2[nH]c1=O (centres undefined)
 : >57	i
> O=C1c2ccccc2C(=O)N1CCc1nn[nH]n1
 : >57	i
> Cc1noc(C)c1S(=O)(=O)Nc1c(C)n(C)n(-c2ccccc2)c1=O
 : >57	i
> CC(c1ccccc1)N1CNc2c(c(=O)n(C)c(=O)n2C)C1 (centres undefined)
 : .	i
> C=CCn1c(=O)c2ccccc2n2c(SCc3cc(=O)n4ccsc4n3)nnc12
 : >57	i
> COc1ccc(-c2noc(-c3ccc(Br)o3)n2)cc1OC
 : >57	i
> OC(COc1cccc2ccccc12)CN1CCN(c2ccccn2)CC1 (centres undefined)
 : >57	i
> COc1ccc(C(=O)N(CN2CCCC2=O)c2nccs2)cc1OC
 : >57	i
> Cc1[nH]n(-c2ccc(S(=O)(=O)O)cc2)c(=O)c1N=Nc1ccccc1
 : .	i
> CCSc1ncc(Cl)c(C(=O)N(Cc2ccc(N(C)C)cc2)C2CCS(=O)(=O)C2)n1 (centres undefined)
 : >57	i
> O=C(c1cc(-c2cccc(O)c2)on1)N1CCOCC1
 : .	i
> Cc1cc(-c2nn3c(C)nnc3s2)ccc1NC(=O)C(C)(C)C
 : .	i

Structures above that contain a tert-butyl group, in the order listed:
Every second line gives: Bst PK mod	TsaE inh
> Cc1cccc(NC(=O)CC(C)(C)C)c1
 : >57	i
> CC(C)(C=O)Cc1cc(C(C)(C)C)c(O)c(C(C)(C)C)c1
 : .	i
> Cc1cc(-c2nn3c(C)nnc3s2)ccc1NC(=O)C(C)(C)C
 : .	i

Other records
| SMILES | Bst PK mod | TsaE inh |
| --- | --- | --- |
| Cc1ccc(C(CC(=O)O)Nc2nc(N3CCCCC3)nc(N3CCCCC3)n2)cc1 (centres undefined) | >57 | i |
| CC(=O)C1=C(N2CCCCC2)CCC1=O | . | i |
| Cc1ccc(CN2CCN(C(=O)C3CCCO3)CC2)cc1 (centres undefined) | >57 | i |
| O=c1c(CCc2ccccc2)nc2cnc(N3CCOCC3)nc2n1CCc1ccccc1 | . | i |
| COc1ccc(-c2nc(CS(=O)CC(=O)N3CCc4ccccc4C3)c(C)o2)cc1 (centres undefined) | . | i |
| O=C(CCNS(=O)(=O)c1ccc(Br)s1)NC1CCCC1 | >57 | i |
| COc1ccc(C)cc1NC(=O)CN(c1ccccc1)S(C)(=O)=O | . | i |
| COc1cccc(-n2nnc3c(=O)n(CC(=O)NCC4CCCO4)cnc32)c1 (centres undefined) | . | i |

A draw from above in order of number of heavy atoms, descending.
| SMILES | Bst PK mod | TsaE inh |
| --- | --- | --- |
| COc1ccc(-c2nc(CS(=O)CC(=O)N3CCc4ccccc4C3)c(C)o2)cc1 (centres undefined) | . | i |
| CC1(C)C(=O)N(CCN2CCC(C(=O)c3ccc(F)cc3)CC2)c2ccccc21 | . | i |
| CC(=O)NCCNc1nc(-c2cccc(NS(C)(=O)=O)c2)nc2ccccc12 | . | i |
| COCCN(Cc1ccccc1)P(=O)(O)c1ccccc1OCC(=O)O | >26 | . |
| O=C1c2ccccc2C(=O)N1CCc1nn[nH]n1 | >57 | i |

Remaining list, next part:
| SMILES | Bst PK mod | TsaE inh |
| --- | --- | --- |
| Cc1cccc(CNc2ncnc3ccc(-c4ccoc4)cc23)c1 | . | i |
| COC(=O)C1CCCN1C(=O)c1cccs1 (centres undefined) | >57 | i |
| Nc1nc(N)c2nc(-c3ccccc3)c(N)nc2n1 | i | i |
| NCCC[C@@H](CC(=O)N[C@@H]1CCCC[C@H]1C(=O)N[C@H](CC(=O)N[C@@H](CCC(=O)O)CC(=O)O)Cc1c[nH]c2ccccc12)NC(=O)C[C@H](Cc1c[nH]c2ccccc12)NC(=O)[C@@H]1CNCC[C@H]1N | . | i |
| O=c1cc(-c2ccccc2)oc2cc(O)c(O)c(O)c12 | . | i |
| O=C(Nc1cccnc1)c1cc2nc(C3CC3)cc(C(F)(F)F)n2n1 | >11 | i |
| NS(=O)(=O)c1ccc(NCc2cnc3ccccc3n2)cc1 | . | i |
| O=C(CN1CCOCC1)N1CCN(c2nnc(-c3ccccc3)c3ccccc23)CC1 | >57 | i |
| COc1ccc(OC)c(S(=O)(=O)NCc2cn3ccsc3n2)c1 | >57 | i |
| COc1ccc(CN(C2CCCC2)S(=O)(=O)c2ccc(-n3cnnn3)cc2)cc1 | >57 | i |
| C=CCn1c(SCC(=O)N(CC)CC)nc(O)cc1=O | . | i |
| Cc1cc(C)cc(NC(=O)CSc2nnc(CNC(=O)c3cccs3)o2)c1 | >57 | i |
| CSc1nnc2c3ccccc3n(CCc3ccccc3)c2n1 | . | i |
| CCN(CCNC(=O)C1CCN(S(=O)(=O)c2cccc3nsnc23)CC1)c1ccccc1 | >57 | i |
| C[C@H]1C[C@H]2[C@@H]3CCC4=CC(=O)C=C[C@]4(C)[C@@]3(Cl)[C@@H](O)C[C@]2(C)[C@@]1(O)C(=O)CO | >26 | . |
| CCOC(=O)O[C@@H](C)OC(=O)[C@@H]1N2C(=O)[C@@H](NC(=O)[C@@H](N)c3ccccc3)[C@H]2SC1(C)C | . | i |
| CCCSc1nnc(Sc2nnnn2-c2ccccc2)s1 | >57 | i |
| COC(=O)N1CC(C)N(C(=O)OC)CC1C (centres undefined) | . | i |
| CN1CCN(S(=O)(=O)c2ccc(-c3ccccc3)cc2)CC1 | >57 | i |
| O=C(NCCC1=CCCCC1)C1CCN(S(=O)(=O)c2cccs2)CC1 | >57 | i |

Compound activity from PubChem BioAssay.
